# Methyltransferases: Primary Screen for Target Class Profiling of Small Molecule Inhibitors of Methyltransferases. purified enzyme, MTase-Glo SAH luminescence; hits give low values. calls only at 40 µM. hit rate 3.9% among 25,000. AID 1745853, 2022; active = -50% or lower on at least one of six enzymes; inconclusive = the cases between; inactive = as a rule above -30% on all six;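 also: enzymes were COMT GAMT GNMT HNMT NNMT and PNMT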
#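 Each enzyme was reacted with SAM and its substrate, with compounds tested once at 40 uM; SAH formed was read by MTase-Glo luminescence.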
# Calls only; i = inactive; u = inconclusive; + = active, no number. % is scaled to controls: 0 for no effect and ±100 for the full control effect.
SMILES,Methyltransferases
COCCc1noc(C2Cc3ccccc3N2C(=O)Nc2ccc3c(c2)OCCO3)n1 (centres undefined),i
C[C@H]1CCN2C[C@]34C[C@@]5(C(=O)Nc6c5ccc5c6OC=CC(C)(C)O5)C(C)(C)C3C[C@]12C(=O)N4C (some centres undefined),i
CC(=O)c1cc2c(cc1O)OC(C)(C)C=C2,i
COc1cccc(C(=O)NC2CCN(c3nnc4ccccn34)CC2)c1,i
Cc1ccc(C)c(N2C(=O)CSc3c(c4ccccc4n3C)C2C(=O)NCCCOC(C)C)c1 (centres undefined),i
CC1(C(=O)NC2CCCCC2)Cn2c(ccc2-c2ccco2)C(=O)N1Cc1cccs1 (centres undefined),i
CCC(C)NC(=O)c1ccc2c(=O)n(C)c3nnc(SCC(=O)Nc4ccc(OC)cc4)n3c2c1 (centres undefined),i
CCN1CCC2(CCC1=O)CN(Cc1cscn1)CCN2C (centres undefined),i
O=C(O)CC1C(=O)NCCN1C1Cc2ccccc2C1 (centres undefined),i
COC1CC(=O)C23C(=O)NC(CC(C)C)C2C(C)C(C)=CC3/C=C(\C)CCC1O (centres undefined),i
CCCn1c(=O)c2ccc(C(=O)NC3CCCCC3)cc2n2c(=O)n(CC(=O)N(C)c3ccccc3)nc12,i
CC(C)Oc1ccc(CNC(=O)c2cc3n(n2)CC(C)(C(=O)NCc2ccc(F)cc2)N(C)C3=O)cc1 (centres undefined),i
CCOc1ccc(NC(=O)N2CCn3c(C)ccc3C2C(C)C)cc1 (centres undefined),i
O=C(CCc1nnc2n(Cc3ccc(Cl)cc3)c(=O)c3ccccc3n12)N1CCC(N2CCCCC2)CC1,+
OC[C@H]1O[C@@H](OC(CCCCc2ccc(O)cc2)CCc2ccc(O)cc2)[C@H](O)[C@@H](O)[C@@H]1O (some centres undefined),i

# A draw from above in order of molecular weight, largest number first.
SMILES,Methyltransferases
CCCn1c(=O)c2ccc(C(=O)NC3CCCCC3)cc2n2c(=O)n(CC(=O)N(C)c3ccccc3)nc12,i
CCC(C)NC(=O)c1ccc2c(=O)n(C)c3nnc(SCC(=O)Nc4ccc(OC)cc4)n3c2c1 (centres undefined),i
COc1cccc(C(=O)NC2CCN(c3nnc4ccccn34)CC2)c1,i

# The listing picks up, starting 5 compounds before the break.
SMILES,Methyltransferases
CCCn1c(=O)c2ccc(C(=O)NC3CCCCC3)cc2n2c(=O)n(CC(=O)N(C)c3ccccc3)nc12,i
CC(C)Oc1ccc(CNC(=O)c2cc3n(n2)CC(C)(C(=O)NCc2ccc(F)cc2)N(C)C3=O)cc1 (centres undefined),i
CCOc1ccc(NC(=O)N2CCn3c(C)ccc3C2C(C)C)cc1 (centres undefined),i
O=C(CCc1nnc2n(Cc3ccc(Cl)cc3)c(=O)c3ccccc3n12)N1CCC(N2CCCCC2)CC1,+
OC[C@H]1O[C@@H](OC(CCCCc2ccc(O)cc2)CCc2ccc(O)cc2)[C@H](O)[C@@H](O)[C@@H]1O (some centres undefined),i
Cc1cc(NS(=O)(=O)c2cc3c(cc2C)n(C)c(=O)n3C)ccc1Br,i
CC1(NC(=O)C2CC2)CN(Cc2nc(-c3ccccc3OCc3ccccc3)cs2)C1,i
O=C(NCc1ccc2c(c1)OCO2)C1NCCc2[nH]cnc21 (centres undefined),i
COC(=O)c1ncn2c1C(=O)N(c1ccc(OC)c(OC)c1)C(C)(C(=O)NC1CCCC1)C2 (centres undefined),i
Cc1ccc(Cn2c(=O)c3ccccc3n3c(=O)n(CC(=O)NCc4ccc(Cl)cc4)nc23)cc1,i
C[C@@H](O[C@H]1OCCN(Cc2nn(P(=O)(O)O)c(=O)[nH]2)[C@H]1c1ccc(F)cc1)c1cc(C(F)(F)F)cc(C(F)(F)F)c1,i
COCc1nc2c([nH]1)c(=O)n(C)c(=O)n2CC(C)C,i
CC1(C)NC(=O)N(CC(=O)N[C@H](Cc2ccccn2)C2CC(O)C2)C1=O (some centres undefined),i
O=C(Cn1nc2n(CCc3ccccc3)c(=O)c3ccccc3n2c1=O)c1ccccc1,i
C=C1C(=O)OC2C1CCC(=C)C1CC(OC(C)=O)C(=C)C12 (centres undefined),+
CCCn1c(=O)c2ccc(C(=O)NC(C)CC)cc2n2c(SCC(=O)Nc3cccc(C)c3)nnc12 (centres undefined),i
COc1ccccc1CN1C(=O)c2ccc(-c3ccccc3)n2CC1(C)C(=O)NC1CCC(C)CC1 (centres undefined),i
COc1cccc(Nc2cn(C)c(=O)n3cc(COc4ccccc4)nc23)c1,i
COc1ccc(S(=O)(=O)Nc2ccc(C)n(CC(=O)O)c2=O)cc1,i
Cc1nn(C)c(C)c1S(=O)(=O)N1CCC(c2noc(-c3ccccc3)n2)C1 (centres undefined),i
CC1(C(=O)NC2CCCCC2)Cn2c(nc3ccccc32)C(=O)N1Cc1ccccc1 (centres undefined),i
CC(C)CC(=O)O[C@@H]1OC=C(CO[C@@H]2O[C@H](CO[C@@H]3O[C@H](CO)[C@@H](O)[C@H](O)[C@H]3O)[C@@H](O)[C@H](O)[C@H]2O)[C@H]2C[C@H](O)[C@@H](CO)[C@@H]12,i
CS(=O)(=O)N(C1CCOCC1)C1CN(C(=O)NCc2ccccc2)C1,i
Cc1cc(C)n(C2CCN(c3nccc(-c4ccccn4)n3)C2)n1 (centres undefined),i
Cn1cccc1CN1C[C@@H](CO)[C@H](c2ccncc2)C1,i
CCn1nc(C2CCN(C(=O)CCO)CC2)nc1-c1cnc(N)c(-c2nnc(C(C)(C)C)o2)n1,i
CNC(=O)N1CCC(C2CCN(C(=O)c3cnccc3C)C2)CC1 (centres undefined),i
COc1ccc(N2CCN(S(=O)(=O)c3ccc4[nH]c(=O)[nH]c4c3)CC2)cc1,i
O=[S+]([O-])(c1cccnc1)c1nnn2c1nc(NCc1ccncc1)c1ccccc12,i
Cc1cccc(-c2n[nH]n3c2nc(=O)c2ccc(C(=O)NC4CCCCC4)cc23)c1,i
COCc1nc(-c2cccc(NC(=O)CC[C@H]3NC(=O)c4ccccc4NC3=O)c2)n[nH]1,i
CCc1ccccc1NS(=O)(=O)c1ccc2[nH]c3c(c2c1)CCCC3,i
CC1(C(=O)Nc2ccccc2F)COCc2cnc(Nc3ccccc3)nc21 (centres undefined),i
CCC(C)NC(=O)c1ccc2c(=O)n(C)c3nnc(SCC(=O)Nc4cccc(C)c4)n3c2c1 (centres undefined),i
CNC(=O)[C@@H]1CN(S(=O)(=O)C(C)C)C[C@H]1c1n[nH]c(C)n1,i
CCC(CC)NC(=O)c1ccc2c(c1)N(S(C)(=O)=O)CC2,i
c1coc(-c2nnc([C@H]3CCN(Cc4c[nH]c5ccccc45)C3)o2)c1,u
CC(C)NC(=O)C1CCc2nnc(CNC(=O)C3CC3)n21 (centres undefined),i
COc1ccc(N2CCN(c3nc(C(=O)NCc4cccc(C)c4)cs3)CC2)cc1,i
C[C@@]12CC[C@@H]3[C@@](CC[C@H]4[C@@]3(C)CCC[C@@]4(C)C(=O)O)(CC1=O)C2,i
C=C1C2=CC(O)C(C)C1(C)CC/C(C)=C/CCC1(C)OC1C2=O (centres undefined),i
C[C@H](Oc1ccc(S(C)(=O)=O)cc1C(=O)N1CCN(c2ncc(C(F)(F)F)cc2F)CC1)C(F)(F)F,i
CC(C)(C)c1cc(/C=C(\C#N)C(N)=S)cc(C(C)(C)C)c1O,+
O=c1[nH]c2ccc(S(=O)(=O)Nc3ccc(F)c(F)c3)cc2[nH]1,i
CCCNC(=O)c1cc2n(n1)CC(C)(C(=O)NC1CCCC1)N(C)C2=O (centres undefined),i
COc1ccc(-c2nc(C)nc3c2CCN([S+](=O)([O-])c2cccc(OC)c2)CC3)cc1,i
CCOCCCNc1nc2c(S(=O)(=O)c3ccc(CC)cc3)nnn2c2ccccc12,i
COc1ccc2[nH]c(C[C@@H]3C[C@@H](C(C)C)[C@H](CNC(=O)c4cccnc4)C=C3C)nc2n1,u
COc1cc(-c2onc(C)c2C(=O)NCCCOC(C)C)cc(OC)c1OC,i
CC1CCC(NC(=O)C2(C)Cn3c(cc4sccc43)C(=O)N2c2ccc(C(C)C)cc2)CC1 (centres undefined),i
COC(=O)C1=CO[C@@H](O[C@@H]2O[C@H](CO)[C@@H](O)[C@H](O)[C@H]2O)[C@H]2[C@@H]1C=C[C@@]21C=C([C@H](C)O)C(=O)O1,i
C=CCn1c(=O)c2ccc(C(=O)NC(C)C)cc2n2c(=O)n(CC(=O)N(C)c3ccc(F)cc3)nc12,i
CC(C)Cn1c(=O)c2ccc(C(=O)NC(C)C)cc2n2c(SCC(=O)Nc3ccccc3F)nnc12,i
O=C(Nc1nn(-c2cccc(F)c2)c2cccc(N3CCOCC3)c12)C1CCC1,i
O=C(CSc1nnc2n(Cc3ccc(F)cc3)c(=O)c3ccccc3n12)NC1CCCCC1,i
CCN(CC)c1cc(CCC(=O)N2CCC(C)CC2)ccn1,u
COCCN1C(=O)CC[C@]2(C(=O)N3CCCCCC3)CCCC[C@@H]12,i
Cn1nc(C2CCCN2)c2c(C(=O)N3CCOCC3)cc(C3CC3)nc21 (centres undefined),i
O=C1N(CC2CC2)CCCC12CCN(S(=O)(=O)N1CCOCC1)C2 (centres undefined),i
CCCn1c(=O)c2cc(F)ccc2n2c(SCc3cccc(C)c3)nnc12,i
COc1cccc(N2C(=O)CSc3c(c4ccccc4n3C)C2C(=O)NCc2ccccc2)c1 (centres undefined),i
C[C@]12CCC[C@](C)(C(=O)O)C1[C@@H](O)[C@@H](O)C13CC(CCC12)C(CO)(O[C@@H]1O[C@H](CO)[C@@H](O)[C@H](O)[C@H]1O)C3 (some centres undefined),i
CCN1c2cc(C(=O)N3CCN(c4cccc(C)c4)CC3)ccc2C(=O)N2CCCCC21 (centres undefined),i
CC(C)C(NS(=O)(=O)c1ccc2c(c1)oc(=O)n2C)C(=O)N1CCN(c2ccc(F)cc2)CC1 (centres undefined),i
CCC(C)NC(=O)c1ccc2c(=O)n(C)c3nn(CC(=O)Nc4ccccc4Cl)c(=O)n3c2c1 (centres undefined),i
# (continued)
SMILES,Methyltransferases
CC(=O)Nc1c2n(c3ccc(F)cc13)CC(C)(C(=O)NC1CCCC1)N(CCCOC(C)C)C2=O (centres undefined),i
CC1CCC(NC(=O)C2(C)Cn3c(cc4sccc43)C(=O)N2C2CCCCC2)CC1 (centres undefined),i
Cc1ccc(-c2n[nH]n3c2nc(=O)c2ccc(C(=O)N4CCN(c5ccccc5)CC4)cc23)cc1,i
COCC(=O)N1CCC(c2nn(-c3ccccn3)c(=O)[nH]2)CC1,i
CC(C)CCNC(=O)C1(C)Cn2c(ccc2-c2ccco2)C(=O)N1CCc1ccccc1 (centres undefined),i
CCc1ccc(N2C(=O)c3cc4occc4n3CC2(C)C(=O)NC2CCCCC2)cc1 (centres undefined),i
CC(C(=O)NCc1ccccc1F)n1ccc2cc(S(=O)(=O)N3CCCC3)ccc21 (centres undefined),i
O=C1c2ccccc2C(=O)c2cc(S(=O)(=O)Nc3ccc(Br)cc3)ccc21,u
CCCSCCCN1C(=O)c2cc3occc3n2CC1(C)C(=O)NC1CCCCC1C (centres undefined),i
CC(C)NC(=O)c1ccc2c(=O)n(C3CC3)c3nn(CC(=O)Nc4ccc(Cl)cc4)c(=O)n3c2c1,i
Cc1cccc(N2CCN(S(=O)(=O)c3cc4c(cc3Br)n(C)c(=O)n4C)CC2)c1C,i
Cc1cccc(CNC(=O)C2(C)Cn3cnc(C(=O)NCc4ccc(OC(C)C)cc4)c3C(=O)N2C2CC2)c1 (centres undefined),i
COc1ccc(C(=O)N2CCOCCNC(=O)[C@H]3CCCC[C@H]32)c(OC)n1,i
CC(C)NS(=O)(=O)c1ccc2c(c1)nc(-c1ccc(CO)o1)n2C(C)C,i
CC(=O)Nc1ccc(NC(=O)c2cccc(CN3CCCC(C#N)C3)c2)cc1 (centres undefined),i

# Two neighbouring entries from above, quoted:
SMILES,Methyltransferases
CC(C(=O)NCc1ccccc1F)n1ccc2cc(S(=O)(=O)N3CCCC3)ccc21 (centres undefined),i
O=C1c2ccccc2C(=O)c2cc(S(=O)(=O)Nc3ccc(Br)cc3)ccc21,u

# 4 records picked at random from those above:
SMILES,Methyltransferases
COc1ccc(C(=O)N2CCOCCNC(=O)[C@H]3CCCC[C@H]32)c(OC)n1,i
CC(=O)Nc1ccc(NC(=O)c2cccc(CN3CCCC(C#N)C3)c2)cc1 (centres undefined),i
CCc1ccc(N2C(=O)c3cc4occc4n3CC2(C)C(=O)NC2CCCCC2)cc1 (centres undefined),i
Cc1ccc(-c2n[nH]n3c2nc(=O)c2ccc(C(=O)N4CCN(c5ccccc5)CC4)cc23)cc1,i

# (more compounds)
SMILES,Methyltransferases
O=C(Cn1nc(-c2ccccc2)c2ccccc21)N1CCN(c2cccc(C(F)(F)F)c2)CC1,i
C=C1C(=O)O[C@@H]2CC(C)=C([C@@H](C)CCCO)[C@@H](OC(=O)C(C)C)[C@H]12,+
CN(CC(=O)N1CCOCC1)S(=O)(=O)c1ccc2c(c1)CCCC(=O)N2,i
O=Nc1c(-c2c(O)[nH]c3ccc(F)cc23)[nH]c2ccccc12,u
O=c1[nH]c2cc(C(F)(F)F)ccc2n1-c1cc(C(F)(F)F)ccc1O,i
NC(=O)c1csc(C2OC(CO)C(O)C2O)n1 (centres undefined),i
CCOCCCNC(=O)C1c2c(n(C)c3ccccc23)SCC(=O)N1Cc1ccco1 (centres undefined),i
COc1cc(-c2nn(C3CCC(N4CCN(C(C)=O)CC4)CC3)c3ncnc(N)c23)ccc1NC(=O)c1cc2ccccc2n1C (centres undefined),i
O=[S+]1([O-])NC2(CCCN(Cc3c(F)cccc3Cl)C2)COc2ccccc21 (centres undefined),+
O=C(Cn1nc2n(Cc3ccc(F)cc3)c(=O)c3ccccc3n2c1=O)NCc1ccc(Cl)cc1,i
O=[S+]([O-])(c1cccc(C(F)(F)F)c1)N1CCc2nc(-c3ccccc3)nc(-c3ccc(Cl)cc3)c2C1,i
CC[C@H](NC(=O)c1c(C)c(-c2ccccc2)nc2ccccc12)c1ccccc1,i
COC(=O)c1cc2n(n1)CC(C)(C(=O)NC1CCCCC1)N(c1ccc(C)cc1)C2=O (centres undefined),i
C[C@]1(CO)C2CC[C@H]3OC(=O)C[C@H]3[C@]2(C)CC[C@H]1OC(=O)Nc1ccccc1 (some centres undefined),i
COc1ccc(-c2cc(C(=O)NCCc3ccc(OC)c(OC)c3)c3c(-c4ccc(OC)cc4)[nH]nc3n2)cc1,i

# Screening results deposited in PubChem by National Center for Advancing Translational Sciences (NCATS).

# Not all compounds are listed; count on the stated rates, not on these rows.
